Screening data as filed in PubChem BioAssay.
RE007 growth inh – qHTS Assay for Inhibitors of the HIV-1 protein Vpr; AID 651644, 2012; hit rate 0.21% among 360,000; S. pombe RE007 Vpr strain, BacTiter-Glo ATP luminescence, 24 h; control for the full effect not named in the record; Potency, µM (titrated, usually from 92.2 µM), for the others: at the highest dose activity change, negative = less growth; active = well fitted falling curve with a large enough effect; inconclusive = small, poorly fitted or top-dose-only effect; inactive = no such curve, though single readings can be large or run the other way;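 further: on the % scale 0 is the no-effect control and ±100 the full control effect; nearly all actives have a fitted effect of over 50% in size; the assay follows cell death caused by Vpr and the record does not say whether a fall means rescue or toxicity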
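Fission yeast strain RE007, carrying one chromosomally integrated HIV-1 vpr copy, was seeded at OD 0.01 in PMG+AL medium with 23 nL pinned compound. After 24 h at 30 °C and 99% humidity, viability was read by BacTiter-Glo luminescence.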
NS1 function inh – qHTS Assay for Inhibitors of Influenza NS1 Protein Function | S. cerevisiae slowed by influenza A NS1, growth recovery by OD600 | hit rate 0.4% among 270,000 | Potency, µM (titrated, usually from 46.1 µM), for inactives: top-dose activity, positive = more growth | AID 2326, 2010; active means well fitted rising curve with a large enough effect; inconclusive means small, poorly fitted or top-dose-only effect; inactive means no such curve, though single readings can be large or run the other way; further: nearly all actives have a fitted effect of over 50% in size
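A cell-based growth assay was used: compounds that relieve NS1-induced slow growth of budding yeast raise OD600. Assay medium was yeast nitrogen base with ammonium sulphate and -URA supplement, pH 6.0, with 2% galactose.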
Cruzain inh noDet – qHTS Assay for Promiscuous and Specific Inhibitors of Cruzain (without detergent); Cruzipain (Trypanosoma cruzi), P25779; purified cruzain, Z-FR-AMC fluorescence, no detergent; Potency, µM, for the others: max response, negative = inhibition, actives largely listed as inhibitors; hit rate 2.3% among 200,000;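 further: plate controls were enzyme without inhibitor for no effect and buffer without enzyme for full effect; nearly all actives have a fitted effect of over 40% in size; top concentration of the series not given in the record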
Target sequence (P25779 123-467 limits assumed): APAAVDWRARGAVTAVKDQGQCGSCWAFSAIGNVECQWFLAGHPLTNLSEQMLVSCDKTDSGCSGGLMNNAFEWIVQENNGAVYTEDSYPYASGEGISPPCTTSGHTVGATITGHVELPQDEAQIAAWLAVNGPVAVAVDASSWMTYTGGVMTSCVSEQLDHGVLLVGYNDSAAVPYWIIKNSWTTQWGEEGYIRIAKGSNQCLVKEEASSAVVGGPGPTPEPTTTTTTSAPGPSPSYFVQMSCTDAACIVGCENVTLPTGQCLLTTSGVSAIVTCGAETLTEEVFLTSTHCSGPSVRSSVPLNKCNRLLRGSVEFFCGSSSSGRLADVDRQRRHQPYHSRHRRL
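Purified cruzain at 1.5 nM, pre-incubated 15 min with compound at room temperature in 100 mM sodium acetate pH 5.5, 5 mM DTT, 0.00005% Triton X-100. Reaction started with 2 uM Z-FR-AMC; AMC fluorescence increase over 60 s gives rate.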
2A StopGo – High Throughput Screening for Foot and Mouth Disease Virus Antivirals. human cells with a luciferase reporter of 2A StopGo recoding; control for the full effect not named in the record. Potency, µM (series often up to 57.9 µM), without a hit: at the top dose signal change, negative = less light. hit rate 1.2% among 410,000. AID 1159524, 2015; active = well fitted falling curve with a large enough effect; inconclusive = small, poorly fitted or top-dose-only effect; inactive = no such curve, though single readings can be large or run the other way; tested in HEK293T cells; further: on the % scale 0 is the no-effect control and ±100 the full control effect; nearly all actives have a fitted effect of over 45% in size; luciferase light after 4 h
MARV entry inh – qHTS for inhibitors of binding or entry into cells for Marburg Virus; hit rate 1.8% among 300,000; Potency, µM (titrated, usually from 37.8 µM), inactives show at the top dose activity change, negative = inhibition, usual class: inhibitors; Marburg virus pseudotyped entry inhibition, cell reporter; control for the full effect not named in the record; about a third of the inactives were read at about 46 µM; active = well fitted inhibition curve with a large enough effect; inconclusive = small, poorly fitted or top-dose-only effect, or effect the other way; inactive = flat fitted curve, though single readings scatter; tested in HEK293 cells; about a fifth of its hits are not listed in these tables; further: on the % scale 0 is the no-effect control and ±100 the full control effect; luciferase read-out
SARS PLP yeast – qHTS of Yeast-based Assay for SARS-CoV PLP. S. cerevisiae expressing SARS-CoV PLpro, growth rescue; control for the full effect not named in the record. Potency, µM (top dose mostly 32.9 µM), inactives show top-dose activity, positive = growth rescue. hit rate 0.19% among 330,000; active means well fitted rising curve with a large enough effect; inconclusive means small, poorly fitted or top-dose-only effect; inactive means no such curve, though single readings can be large or run the other way; further: 0% is about no effect; nearly all actives have a fitted effect of over 55% in size; growth read by luminescence after 48 h
Lassa entry inh – qHTS for Inhibitors of binding or entry into cells for Lassa Virus; Potency, µM (titrated, usually from 37.9 µM), inactives show top-dose activity change, negative = inhibition, actives largely listed as inhibitors; hit rate 1.2% among 300,000; Lassa virus pseudotype entry inhibition, cell reporter; control for the full effect not named in the record; active means well fitted inhibition curve with a large enough effect; inconclusive means small, poorly fitted or top-dose-only effect, or effect the other way; inactive means flat fitted curve, though single readings scatter; tested in HEK293 cells; further: on the % scale 0 is the no-effect control and ±100 the full control effect; nearly all actives have a fitted effect of over 50% in size; luciferase read-out
Cruzain inh Det – qHTS Assay for Promiscuous and Specific Inhibitors of Cruzain (with detergent); Potency, µM, without a hit: max response, negative = inhibition, most hits filed as inhibitors; AID 1478, 2009; purified cruzain, Z-FR-AMC fluorescence, 0.01% Triton; hit rate 0.43% among 200,000;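 further: plate controls were neutral wells for no effect and buffer without enzyme for full effect; nearly all actives have a fitted effect of over 40% in size; top concentration of the series not given in the record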
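Sodium acetate buffer (100 mM, pH 5.5) containing 5 mM DTT and 0.01% Triton X-100 hosted 1.5 nM cruzain and test compound for 15 min at room temperature. Cleavage of 2 uM Z-FR-AMC was then tracked by fluorescence.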
The depositor's hits bear a star; ? = inconclusive; . = no result given; & = joins results of further samples; [ ] = remark or other dose. Unless noted, the call rests on the fitted dose curve; in most records, active means well fitted curve in the direction sought with a large enough effect; inconclusive means small, poorly fitted or top-dose-only effect, or another doubt; inactive means no such curve, though single readings can be large; an effect the other way counts as inactive or inconclusive. Potency means the concentration at half of the fitted maximal effect.

SMILES	RE007 growth inh	NS1 function inh	Cruzain inh noDet	2A StopGo	MARV entry inh	SARS PLP yeast	Lassa entry inh	Cruzain inh Det
CC(C)Cn1c(SCC(=O)N2CCN(S(=O)(=O)c3ccccc3)CC2)nc2ccccc21	-8%	-14%	-2%	.	?	2%	-12%	-2.2%
CCOC(=O)CN1CC23C=CC(O2)C(C(=O)NC2CCCCC2)C3C1=O (stereo not drawn)	0%	4%	-4%	-2%	5%[46.1 µM]	-2%	0%	5.6%
N#C/C(=C\c1ccc[nH]1)C(=O)N1CCCCC1	-6%	1%	.	26%	?	-2%	?	.
COC(=O)c1cc2ccsc2n1CC(=O)N(C)c1ccccc1	-6%	-7%	-1%	-21%	-20%	11%	15%	-4.6%
COn1c(=O)c(-c2ccc(C)cc2)[n+]([O-])c2ccccc21	0%	1%	.	10%	.	1%	.	.
CCCCC(=O)OCCNC(=O)c1cc2ccccc2oc1=O	-14%	-7%	-6%	-16%	11%[46.1 µM]	-9%	5%	-5.0%
Cc1ccc(-n2ncc3c(NCc4ccccc4)ncnc32)cc1Cl	.	.	6%	32%[activator]	.	.	17%[46.1 µM]	1.8%
O=C(CCC1CCCCC1)Nc1ncn[nH]1	9%	-3%	12%	-7%	4%	-2%	?	-0.2%
COc1ccccc1NC(=O)C1=C(C)NC(SCC(=O)Nc2ccc(C(=O)O)cc2)=C(C#N)C1c1cccs1 (stereo not drawn)	-2%	7%	.	-3%	-1%[46.1 µM]	5%	6%	.
COc1ccccc1NC(=O)CCN1CC(C)OC(C)C1 (stereo not drawn)	-15%	1%	-4%	-14%	1%	-9%	10%	10%
CCSc1ccccc1C(=O)N1CCN(c2ccc([N+](=O)[O-])cc2)CC1	3%	-6%	.	?	?	-1%	?	.
CCC(C)(C)NC(=O)c1ccccc1Oc1ccccc1	19%	-1%	.	-8%	?	-3%	5%[46.1 µM]	.
CCOc1cc(NC(=S)NCCCOC)c(OCC)cc1NC(=O)c1cccs1	0%	-1%	7%	-2%	14%	6%	-11%	-4.6%
Cc1oc(-c2ccc(C(=O)Nc3ccc(F)cc3F)cc2)nc1COc1ccccc1	.	.	2%	-14%	.	.	7%[46.1 µM]	-3.2%
O=c1c2ccccc2nnn1Cc1ccc(Br)cc1	-20%	-3%	.	-16%	?	0%	1%[46.1 µM]	.
Cc1cc(NC(=O)CCC(=O)N(CC(=O)NC2CCCC2)c2ccc(Cl)c(Cl)c2)no1	6%	2%	.	-6%	?	1%	4%	.
CC1CCC(NC(=O)CC(NC(N)=O)c2ccccc2Cl)CC1 (stereo not drawn)	-2%	?	.	17%	20%[46.1 µM]	12%	15%	.
COc1ccc(C(O)(c2ccccc2)c2ccncc2)cc1 (stereo not drawn)	13%	.	.	-17%	?	.	-13%	.
ON=C1c2cc(OCCN3CCCCC3)ccc2-c2ccc(OCCN3CCCCC3)cc21	-6%	-11%	.	-10%	3.2µM*	-5%	?	.
N#Cc1cccc(-c2cn(S(=O)(=O)c3ccc(Cl)cc3)nc2N)c1	-2%	11%	?	-26%	-22%[46.1 µM]	3%	-24%	-13%
O=[N+]([O-])c1ccc(OCCn2cnc3ccccc32)cc1	-11%	.	.	-5%	-16%[46.1 µM]	-2%	6%	.
COc1ccc(C(CCN)Cc2ccccc2)cc1 (stereo not drawn)	2%	5%	.	-11%	?	-1%	-1%	.
CCc1ccccc1NC(=O)CSc1n[nH]c(-c2cccnc2)n1	6%	-3%	.	1%	0%[46.1 µM]	1%	4%	.
COc1cccc(/C=C/C(=O)OCC(=O)N2c3ccccc3CC2C)c1OC (stereo not drawn)	-7%	.	.	1%	15%	6%	9%	.
O=C(CCS(=O)(=O)c1ccc(Cl)cc1)Nc1ccc(N2CCOCC2)cc1	-22%	0%	.	-9%	28%[46.1 µM]	-1%	-1%	.
(continued)
SMILES	RE007 growth inh	NS1 function inh	Cruzain inh noDet	2A StopGo	MARV entry inh	SARS PLP yeast	Lassa entry inh	Cruzain inh Det
C=C(C)c1cccc(C(C)(C)NC(=O)N2CC(C)OC(C)C2)c1 (stereo not drawn)	-6%	-3%	18%	2%	1%	3%	?	4.3%
CN1C(C(=O)NCc2cccc(Br)c2)CC2Cn3c(nc4cc5ccccc5cc43)C21 (stereo not drawn)	2%	-8%	.	?	.	1%	.	.
CC(=O)N1CCc2cc(Br)cc(S(=O)(=O)NCC3CCCO3)c21 (stereo not drawn)	2%	-8%	2%	65%[activator]	3%	5%	1%	7.0%
COc1ccc(NS(=O)(=O)c2ccc3oc(SC4CCOC4=O)nc3c2)cc1 (stereo not drawn)	-2%	-6%	-1%	-23%	7%	11%	0%	-2.6%
O=C1Cc2ccccc2N1c1c(Cl)cccc1Cl	25%	10%	17%	?	-12%	6%	6%	-5.0%
Cc1c(NC(=O)c2ccc(Br)o2)cccc1-c1nc2ccccc2o1	.	.	-9%	-10%	.	.	-2%[46.1 µM]	-2.0%
O=C(Nc1ccc(N2CCN(C(=O)c3ccco3)CC2)c(Cl)c1)c1c(F)c(F)c(F)c(F)c1F	-25%	?	-18%	28µM*	?	-15%	?	-1.2%
O=C(CCCO)NC1Cc2ccccc2C1	19%	-5%	.	3%	17%[46.1 µM]	3%	12%	.
CCOC(=O)C1CCN(C(=O)C(C)N(c2ccc(Oc3ccccc3)cc2)S(C)(=O)=O)CC1 (stereo not drawn)	-4%	-8%	.	?	.	-1%	.	.
CCOc1ccc(C(=O)Nc2nc(C)cc(C)n2)cc1[N+](=O)[O-]	10%	-1%	-1%	-10%	11%	-4%	11%	-3.2%
CSCC[C@H](NC(=O)Cc1c(C)c2c(cc(C)c3c(C)c(C)oc32)oc1=O)C(=O)O	5%	3%	.	1%	.	0%	.	.
Cc1c(Cl)cccc1NC(=O)c1oc2ccc(S(=O)(=O)N3CCC4(CC3)OCCO4)cc2c1C	.	.	0%	?	.	.	?	-0.5%
O=[N+]([O-])c1nn(-c2ccc3c(c2)OCCO3)n(O)c1=NCc1ccccc1Cl	16%	-5%	?	.	-14%	4%	-2%	2.8%
COc1cccc(C(=O)NCCS(=O)(=O)N2CCCCC2)c1	3%	.	.	-12%	?	3%	10%	.
CS(=O)(=O)c1cccc(C(=O)OCC(=O)NC(=O)Nc2ccccc2F)c1	-9%	.	.	-7%	-8%[46.1 µM]	-2%	?	.
Cc1ccc(CS(=O)Cc2ccc(C(=O)NCCc3ccccc3)o2)cc1 (stereo not drawn)	-5%	-11%	.	0%	.	-3%	.	.
CC1CC(C)CN(S(=O)(=O)c2ccc(C(C)(C)C)cc2)C1 (stereo not drawn)	12%	5%	.	2%	5%[46.1 µM]	0%	-18%[46.1 µM]	.
COC(=O)Cn1c(C)c(C(C)=O)c(C(C)=O)c1C	12%	-3%	-1%	10%	19%	-1%	12%	6.5%
COc1ccc([N+](=O)[O-])cc1N(CC(=O)N1CCN(Cc2ccccc2)CC1)S(C)(=O)=O	6%	12%	.	-7%	-20%	0%	-24%	.
COc1c(C)cc(Br)cc1C(=O)Nc1ccc(N2CCN(S(C)(=O)=O)CC2)cc1	5%	7%	-20%	-5%	-1%&0%	-2%	-8%	3.7%
O=C(OCC(=O)N1CCCC1)c1ccccc1O	-14%	-4%	.	42%[activator]	16%[46.1 µM]	-1%	?	.
COc1ccc(-c2nnc3n2N=C(C)CS3)cc1	7%	-14%	-7%	-3%	24%	-2%	-13%	7.2%
CCN(CC)C(=O)COc1cc(C)c(Cl)c(C)c1	11%	1%	19%	-9%	-13%	4%	0%	-1.8%
CCCOc1ccc(C(=O)Nc2ccc(N3CCN(C(C)=O)CC3)cc2)cc1	-7%	0%	?	-9%	0%	10%	8%	-3.5%
Cc1cccc(NS(=O)(=O)c2cc3c4c(c2)C(C)C(=O)N4CCC3)c1 (stereo not drawn)	0%	24%	.	41%[activator]	.	-3%	.	.
Next records:
SMILES	RE007 growth inh	NS1 function inh	Cruzain inh noDet	2A StopGo	MARV entry inh	SARS PLP yeast	Lassa entry inh	Cruzain inh Det
O=C(COC(=O)c1cc[n+]([O-])cc1)Nc1ccc(F)c([N+](=O)[O-])c1	2%	19%	-22%	-19%	?	-11%	4%	-4.7%
O=C(Nc1ccccc1N1CCOCC1)c1cc(-c2ccco2)nc2ccccc12	1%	5%	?	?	?	4%	-26%	-4.1%
O=C(Nc1ccc(-c2cnco2)cc1)c1ccc(Cl)cc1	-7%	1%	.	0%	.	-1%	.	.
O=C1CC(N2CCN(Cc3ccccc3)CC2)C(=O)N1 (stereo not drawn)	-16%	1%	.	-16%	.	1%	.	.
CCOc1cc(C2CC(=O)Nc3nc(SCc4ccccc4)[nH]c(=O)c32)ccc1O (stereo not drawn)	.	.	-5%	-8%	-1%[46.1 µM]	.	-1%[46.1 µM]	-2.2%
COc1ccc(S(=O)(=O)Nc2nnc(Cc3ccc(OC)c(OC)c3)s2)cc1	-3%	12%	.	46%[activator]	8%[46.1 µM]	0%	0%	.
O=C(NCc1ccco1)c1nc2ccccc2s1	-18%	-84%	-4%	55%[activator]	?	-14%	5%	-6.0%
Cn1nc(C(F)(F)F)c(-c2ccccc2)c1NC(=O)c1ccco1	-13%	-1%	.	-15%	.	-1%	.	.
CC1(C(=O)N2CC3(CC(c4ccccc4)=NO3)C[C@H]2C(=O)NCC(N)=O)CC1 (stereo partly drawn)	-6%	2%	-2%	-8%	.	-2%	.	1.0%
CCOC(=O)C1CCN(C(=O)c2cc3c(s2)-c2ccccc2OC3)CC1	-11%	-23%	.	38%[activator]	.	-5%	.	.
O=C(CSc1nnc(CNC(=O)c2c(F)cccc2F)o1)NCc1ccco1	5%	11%	.	-13%	9%	2%	6%	.
CN(C)CCn1c(=O)n(-c2cccc(Cl)c2)c(=O)c2c3c(sc21)CCCCC3	7%	-3%	.	-24%	-23%[14.2 µM]	1%	?	.
CC1(C)CC(=O)C(C=NCCc2ccc(O)cc2)=C(O)C1	-9%	13%	0%	.	12%	1%	2%	2.9%
